# Screening results (PubChem BioAssay)
# Cruzain Triton: inhibitors of Trypanosoma cruzi cruzain with detergent; AID 1478; Potency, µM, inactives show max response, negative = inhibition, usual class: inhibitors; purified cruzain, Z-FR-AMC fluorescence, 0.01% Triton; actives 0.43% (n = 200,000); P25779; active = well fitted curve in the direction sought with a large enough effect; inconclusive = small, poorly fitted or top-dose-only effect, or another doubt; inactive = no such curve, though single readings can be large; an effect the other way counts as inactive or inconclusive;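 note: plate controls were neutral wells for no effect and buffer without enzyme for full effect; nearly all actives have a fitted effect of over 40% in size; top concentration of the series not given in the record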
# Target sequence (P25779 123-467 limits assumed): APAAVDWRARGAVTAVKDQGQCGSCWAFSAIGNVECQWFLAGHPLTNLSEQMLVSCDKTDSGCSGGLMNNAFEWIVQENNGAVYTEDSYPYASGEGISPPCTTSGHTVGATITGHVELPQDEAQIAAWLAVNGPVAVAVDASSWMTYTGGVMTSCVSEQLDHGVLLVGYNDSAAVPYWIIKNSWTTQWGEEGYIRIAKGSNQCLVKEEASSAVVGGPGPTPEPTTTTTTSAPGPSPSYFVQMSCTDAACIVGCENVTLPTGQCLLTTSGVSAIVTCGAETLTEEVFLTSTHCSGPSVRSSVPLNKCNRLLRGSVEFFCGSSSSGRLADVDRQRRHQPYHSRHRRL
#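 Enzyme 1.5 nM, Z-FR-AMC 2 uM, NaOAc 100 mM pH 5.5, DTT 5 mM, Triton X-100 0.01%; 15 min RT compound preincubation; kinetic ex360/em450, 60 s delta.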
# NS1 function inh: blocks influenza NS1 protein function; S. cerevisiae slowed by influenza A NS1, growth recovery by OD600; Potency, µM (series often up to 46.1 µM), for inactives: at the top dose activity, positive = more growth; actives 0.4% (n = 270,000); note: actives are rising curves; nearly all actives have a fitted effect of over 50% in size
#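 Recovery from NS1-induced slow growth read by OD600 in budding yeast switched to galactose assay medium (pH 6.0, -URA) at 1:100 dilution. Compound 23 nl per well; the matching strain lacking NS1 serves as control.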
# RE007 growth inh: less growth of the S. pombe RE007 Vpr strain | S. pombe RE007 Vpr strain, BacTiter-Glo ATP luminescence, 24 h; control for the full effect not named in the record | Potency, µM (series often up to 92.2 µM), for the others: at the top dose activity change, negative = less growth | actives 0.21% (n = 360,000) | AID 651644; active = well fitted falling curve with a large enough effect; inconclusive = small, poorly fitted or top-dose-only effect; inactive = no such curve, though single readings can be large or run the other way;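 note: % is set by controls: 0 for no effect and ±100 for the full control effect; nearly all actives have a fitted effect of over 50% in size; the assay follows cell death caused by Vpr and the record does not say whether a fall means rescue or toxicity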
#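 Fission yeast strain RE007, carrying one chromosomally integrated HIV-1 vpr copy, was seeded at OD 0.01 in PMG+AL medium with 23 nL pinned compound. After 24 h at 30 °C and 99% humidity, viability was read by BacTiter-Glo luminescence.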
# Marburg entry inh: inhibitors of Marburg virus binding or cell entry; actives 1.8% (n = 300,000); Marburg virus pseudotyped entry inhibition, cell reporter; control for the full effect not named in the record; about a third of the inactives were read at about 46 µM; AID 540276; Potency, µM (top dose mostly 37.8 µM), for the others: top-dose activity change, negative = inhibition, actives largely listed as inhibitors; active = well fitted inhibition curve with a large enough effect; inconclusive = small, poorly fitted or top-dose-only effect, or effect the other way; inactive = flat fitted curve, though single readings scatter; tested in HEK293 cells; about a fifth of its hits are not listed in these tables; note: % is set by controls: 0 for no effect and ±100 for the full control effect; luciferase read-out
# Lassa entry inh: inhibitors of Lassa virus binding or cell entry | actives 1.2% (n = 300,000) | Lassa virus pseudotype entry inhibition, cell reporter; control for the full effect not named in the record | Potency, µM (doses to about 37.9 µM), for inactives: top-dose activity change, negative = inhibition, most hits filed as inhibitors; active means well fitted inhibition curve with a large enough effect; inconclusive means small, poorly fitted or top-dose-only effect, or effect the other way; inactive means flat fitted curve, though single readings scatter; tested in HEK293 cells; note: % is set by controls: 0 for no effect and ±100 for the full control effect; nearly all actives have a fitted effect of over 50% in size; luciferase read-out
# SARS PLP yeast: SARS-CoV PLP inhibition in yeast | S. cerevisiae expressing SARS-CoV PLpro, growth rescue; control for the full effect not named in the record | Potency, µM (doses to about 32.9 µM), inactives show top-dose activity, positive = growth rescue | actives 0.19% (n = 330,000); note: 0% is about no effect; nearly all actives have a fitted effect of over 55% in size; growth read by luminescence after 48 h
# 2A StopGo: lowers the luciferase signal of an FMDV 2A StopGo reporter. actives 1.2% (n = 410,000). Potency, µM (doses to about 57.9 µM), for the others: at the top dose signal change, negative = less light. human cells with a luciferase reporter of 2A StopGo recoding; control for the full effect not named in the record. AID 1159524; active = well fitted falling curve with a large enough effect; inconclusive = small, poorly fitted or top-dose-only effect; inactive = no such curve, though single readings can be large or run the other way; tested in HEK293T cells; note: % is set by controls: 0 for no effect and ±100 for the full control effect; nearly all actives have a fitted effect of over 45% in size; luciferase light after 4 h
# Cruzain noTriton: inhibitors of Trypanosoma cruzi cruzain without detergent; Potency, µM, for inactives: max response, negative = inhibition, hits mostly inhibitors; actives 2.3% (n = 200,000); P25779; purified cruzain, Z-FR-AMC fluorescence, no detergent; active = well fitted curve in the direction sought with a large enough effect; inconclusive = small, poorly fitted or top-dose-only effect, or another doubt; inactive = no such curve, though single readings can be large; an effect the other way counts as inactive or inconclusive;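 note: plate controls were enzyme without inhibitor for no effect and buffer without enzyme for full effect; nearly all actives have a fitted effect of over 40% in size; top concentration of the series not given in the record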
#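 Detergent-free condition (0.00005% Triton X-100) in acetate buffer pH 5.5 with DTT. 1.5 nM enzyme and compound were pre-mixed 15 min, then 2 uM Z-FR-AMC substrate added; reaction progress from fluorescence change between first and third reads (60 s).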
# * hit, by the source's call; ? = inconclusive; / = not tested or not shown; & = joins results of further samples; [ ] = dose if it differs, or a comment. Unless noted, calls come from the whole dose curve; as a rule, active means well fitted rising curve with a large enough effect; inconclusive means small, poorly fitted or top-dose-only effect; inactive means no such curve, though single readings can be large or run the other way. Potency is the fitted concentration of half-maximal effect.
SMILES,Cruzain Triton,NS1 function inh,RE007 growth inh,Marburg entry inh,Lassa entry inh,SARS PLP yeast,2A StopGo,Cruzain noTriton
CC(=O)Nc1ccccc1OCc1nnc(-c2ccc(Cl)cc2)o1,/,3%,16%,?,-4%[46.1 µM],-3%,-2%,/
O=C(Nc1ccc2c(c1)OCO2)O[C@@H]1C[C@H]2CCC(=O)N3CC[C@@H](C1)[C@@H]23,/,26%,1%,/,/,-4%,-1%,/
Cc1ccc(OCCSc2nc3ccc(NC(=O)c4cccs4)cc3s2)cc1,-1.6%,/,/,-5%[46.1 µM],-4%[46.1 µM],/,-4%,0%
CCCCN(CCCC)C(=O)C1CC=CCC1C(=O)O (stereo not given),/,-4%,0%,-2%[46.1 µM],12%,1%,-19%,/
O=C(CNc1ccc2ccccc2c1)N/N=C/c1ccc(C(=O)O)cc1,/,/,-6%,11%[46.1 µM],14%[46.1 µM],0%,10%,/
COCCN1C(=O)C(O)=C(C(=O)c2cccs2)C1c1ccccc1 (stereo not given),2.2%,-2%,8%,11%,1%,11%,44%[activator],-10%
COc1ccc(S(=O)(=O)Nc2ccccc2N2CCOCC2)cc1OC,/,/,-12%,10%,4%,-2%[6.58 µM],6%,/
CCOC(=O)CCSCC(=O)Nc1nnc(C)s1,0.2%,-20%,5%,/,/,9%,-15%,0%
Cn1c(-c2ccccc2)cc(=O)c2ccccc21,-0.3%,-21%,?,2%,6%,-17%,/,-1%
CN(c1ccc(OCC(=O)OCC(=O)Nc2ccc([N+](=O)[O-])cc2)cc1)S(=O)(=O)c1cccs1,/,/,-2%,27%,8%,/,-16%,/
CCCN1CNC(=S)N(c2cccc(C)c2C)C1,2.7%,-4%,-5%,-25%,-17%,2%,0%,0%
Cc1ccc(-c2cc(C(F)(F)F)n3ncc(-c4ccc(Cl)cc4)c3n2)cc1,-3.0%,/,/,0%[46.1 µM],6%[46.1 µM],/,9%,2%
Cc1cc([N+](=O)[O-])c(C(C)(C)C)cc1N,-1.9%,0%,-14%,0%,19%,-7%,-24%,-1%
CCOc1ccc(NC(=O)CSc2n[nH]c(N)n2)c([N+](=O)[O-])c1,-1.4%,13%,-7%,10%,3%,-7%,-10%,2%
Cc1ccc(C(=O)NNC(=O)c2cc3cc4ccccc4nc3s2)cc1,-11%,1%,-7%,-14%,?,-7%,1%,16µM*
Cn1c(SCc2nnc(-c3ccccc3)o2)nc2ccccc21,/,/,-7%,?,12%,1%,0%,/
CN(C)/C=N/C(=S)Nc1ccccc1Cl,/,-7%,3%,?,10%,-1%,42%[activator],/
CN(Cc1ccccc1)C(=O)c1ccccc1N(C)S(=O)(=O)c1ccccc1,/,/,25%,-10%[46.1 µM],?,-5%,-7%,/
COc1ccccc1NC(=O)c1ccccc1NC(=O)c1ccccc1,-5.4%,/,/,/,?,/,-15%,-5%
C#CCOCCOCCOCCNc1nc(N2CCN(C(=O)[C@H](CCCCN)n3cc([C@@H](N)CC(C)C)nn3)CC2)nc(N2CCN(C(=O)[C@H](Cc3cc4ccccc4[nH]3)n3cc([C@@H](N)Cc4ccc(O)cc4)nn3)CC2)n1,/,3%,23%,/,/,-1%,9%,/
COc1cc(C=O)ccc1OCC(=O)N1CCCC1,/,3%,-12%,/,/,1%,23%,/
Cc1ccccc1C(=O)Nc1ccc(N2CCN(C)CC2)nc1,/,/,-8%,7%[46.1 µM],4%,0%,32%[activator],/
COc1ccccc1NC(=O)Nc1nc2ccc(S(N)(=O)=O)cc2s1,/,-11%,17%,-4%[46.1 µM],/,-2%,49%[activator],/
CC1CCN(S(=O)(=O)c2ccc(NC(=O)CCN3C(=O)c4ccccc4C3=O)cc2)CC1,-1.5%,11%,-8%,4%,?,-2%,-23%,30%
O=C(CSc1nnnn1-c1ccccc1)c1ccc(O)cc1O,/,1%,8%,/,/,0%,32%[activator],/
Cc1ccc(-n2nc3ccc(NC(=O)c4oc5ccc(C)cc5c4C)cc3n2)cc1,-2.3%,/,/,/,18%[46.1 µM],/,11%,-10%
CCOC(=O)C1CCCN(C(=O)Nc2ccccc2)C1 (stereo not given),0.0%,-3%,-4%,-2%,8%,-5%,0%,-16%
Cc1ccc(S(=O)(=O)N2CCN(C(=O)CSC3CCCC3)CC2)c(C)c1,-1.2%,-21%,18%,?,-20%,-4%,-30%,4%
CN(CCOc1ccccc1)CC(=O)Nc1ccc(Cl)cc1[N+](=O)[O-],/,/,1%,?,-14%,-15%,?,/
O=C(CCNS(=O)(=O)c1ccccc1)NCC1CCCCC1,/,/,12%,6%[46.1 µM],28%,-5%,-17%,/
CCC(Cc1ccccc1)NC(=O)c1cc(S(=O)(=O)N2CCCCC2)c[nH]1 (stereo not given),/,-13%,-3%,/,/,10%,-21%,/
CCC(NC(=O)C1CCCO1)c1ccccc1 (stereo not given),/,-5%,-4%,?,21%,2%,3%,/
C#Cc1cccc(C(=O)N2CCCC(C(=O)c3ccc(OC)cc3C)C2)c1 (stereo not given),/,5%,6%,3%,12%,21%,32%[activator],/
COc1ccc(-n2c(O)c(C=NCc3ccccn3)c3ccccc3c2=O)c(OC)c1,/,4%,-14%,-19%,-1%,-1%,-18%,/
C=CCn1c(SCc2ccccc2)nc2scc(-c3ccc(C)o3)c2c1=O,-8.6%,9%,-3%,-2%,0%,4%,0%,-3%
Cc1ccsc1/C=N/n1c(-c2ccncc2)n[nH]c1=S,-4.0%,24%,-2%,?,2%,5%,-6%,-10%
O=C(COc1ccccc1)Nc1ccccc1Oc1ccccc1,-2.7%,-15%,2%,7%,-28%,6%,-15%,-13%
Cc1onc(-c2ccccc2)c1-c1n[nH]c(=S)n1-c1ccc(C(=O)O)cc1,-3.9%,11%,-23%,?,2%,10%,-11%,-6%
Cc1cccnc1NC(=O)C1CCCN(S(=O)(=O)c2ccc3c(c2)oc(=O)n3C)C1 (stereo not given),0.4%,10%,-4%,-4%,/,0%,-25%,-1%
CCOc1ccc(N2C(=O)N(Cc3c(F)cccc3Cl)c3ccccc3S2(=O)=O)cc1,1.4%,/,/,/,8%[46.1 µM],/,-5%,?
Cc1onc(-c2ccccc2)c1C(=O)N[C@@H]1C(=O)N2[C@@H]1SC(C)(C)[C@@H]2C(=O)O,-2.7%,0%,/,-14%,-5%,11%,/,8%
COc1ccc(CCC(=O)NCCS(=O)(=O)N2CCN(c3ccccc3F)CC2)cc1,/,/,3%,8%,-21%[46.1 µM],-1%,-22%,/
Cc1c(Br)c([N+](=O)[O-])nn1CC(=O)N1CCN(C23CC4CC(CC(C4)C2)C3)CC1,/,6%,3%,/,/,-9%,-15%,/
O=C(O)c1cn2c3c(ccc(Cl)c3c1=O)OCC2,/,-4%,100%,8%,24%,0%,-8%,/
CCCCCCCCCC(=O)NNC(=O)c1c(O)c2ccccc2n(CCC)c1=O,/,6%,2%,8%[46.1 µM],-11%,0%,-23%,/
CC(C)CCNC1=NCCCCC1,-2.1%,-9%,-4%,19%,-19%,-5%,/,-5%
CCCCOc1ccc(C(=O)N/C(=C/C=C/c2ccccc2)C(=O)N2CCOCC2)cc1,-9.4%,?,-17%,?,?,17%,?,13%
CC1CCN(S(=O)(=O)c2ccc3ncn(CC(=O)N(C)C4CCCCC4)c(=O)c3c2)CC1,/,/,-5%,?,?,4%,-23%,/
Cc1ccc(-n2c(SCn3nnc4ccccc4c3=O)nnc2-c2cccnc2)c(C)c1,-0.5%,-3%,-11%,-4%,-1%,2%,/,?
CC(=O)c1cccc(NC(=O)Cn2cc(C(=O)c3cccc(Cl)c3)c(=O)c3ccc(C)nc32)c1,-7.3%,/,/,1%[46.1 µM],-2%[46.1 µM],/,0%,-19%
CC1(C)Cc2c(C#N)c(NC3CCCCC3)nc(-c3ccco3)c2CO1,?,-49%,/,3%,/,-8%,/,22%
O=C(Cc1cccs1)NCCS(=O)(=O)N1CCN(c2ccccc2F)CC1,/,/,3%,?,?,/,-14%,/
COc1ccc(-c2ccc(SCC(=O)Nc3nccs3)nn2)cc1OC,/,/,11%,-6%[46.1 µM],3%,-1%,-1%,/
Cc1ccc(S(=O)(=O)N(C)C)cc1NC(=S)Nc1ccc2[nH]c(=O)[nH]c2c1,/,/,-9%,13%,-3%,5%,-15%,/
O=C1CSc2ccccc2N1Cc1ccccc1F,1.3%,-15%,-4%,25%,11%,-3%,16%,-7%
CCOC(=O)c1ccc(N2CCN(c3cccc(OC)c3)CC2)c(NC(=O)Nc2ccc(OCC)cc2)c1,-0.4%,/,/,/,7%[46.1 µM],/,-23%,-17%
CC1CC1C(=O)N1CCN(S(=O)(=O)c2cccc(F)c2)CC1 (stereo not given),/,/,-18%,5%,14%,0%,?,/
CC(C)NC(=O)c1ccc2c(c1)nnn2C,1.3%,-3%,1%,10%[46.1 µM],-11%,1%,16%,-10%
CCc1c(C)nc2nncn2c1Nc1cccc(C)c1,-1.8%,/,/,1%[46.1 µM],-7%[46.1 µM],/,-7%,-7%
Cc1cc(Nc2ncc(Cl)cc2Cl)n(-c2ccccc2)n1,-7.6%,-30%,11%,9%,-5%,-102%,?,0%

# (listing goes on)
SMILES,Cruzain Triton,NS1 function inh,RE007 growth inh,Marburg entry inh,Lassa entry inh,SARS PLP yeast,2A StopGo,Cruzain noTriton
COc1cc(CNc2ccccc2)c([N+](=O)[O-])cc1OC,/,0%,-1%,-16%,-1%,-2%,?,/
COc1ccc(/C=C(\C#N)c2cc(OC)c(OC)cc2[N+](=O)[O-])cc1,/,-53%,-14%,-5%[46.1 µM],10%,0%,-20%,/
CCOC(=O)c1c(C)oc2nc(C)nc(NCc3ccccc3OCC)c12,1.4%,/,/,/,?,/,-10%,-13%
CC(C)[C@H](NC(=O)c1ccccc1)C(=O)Nc1cccc(S(=O)(=O)N2CCOCC2)c1,/,/,-2%,2%,-20%,-4%,8%,/
COc1ccc(N2CCN(C(=O)C3COc4ccccc4O3)CC2)cc1 (stereo not given),-5.3%,-9%,-14%,-14%[46.1 µM],-11%,-4%,-26%,-6%
CCC(C)(C(=O)NC1CCCC1)N(C(=O)Cc1cccs1)c1c(C)n(C)n(-c2ccccc2)c1=O (stereo not given),/,/,-16%,-19%[46.1 µM],4%,1%,-4%,/
CCOc1ccc2nc(N3CCC(C(=O)N4CCN(c5ncccn5)CC4)CC3)sc2c1,/,-53%&7%,-12%,/,/,-2%,?,/
CC(c1nnnn1C(C)(C)C)N(Cc1cccnc1)Cc1ccccc1Cl (stereo not given),1.8%,2%,19%,?,-4%,-9%,?,5%
